Screens as filed in PubChem.
StopGo reporter – High Throughput Screening for Foot and Mouth Disease Virus Antivirals | human cells with a luciferase reporter of 2A StopGo recoding; control for the full effect not named in the record | Potency, µM (series often up to 57.9 µM), for the others: at the highest dose signal change, negative = less light | 1.2% of 410,000 active | AID 1159524, 2015; active = well fitted falling curve with a large enough effect; inconclusive = small, poorly fitted or top-dose-only effect; inactive = no such curve, though single readings can be large or run the other way; tested in HEK293T cells; also: % is scaled to controls: 0 for no effect and ±100 for the full control effect; nearly all actives have a fitted effect of over 45% in size; luciferase light after 4 h
Lassa entry inh – qHTS for Inhibitors of binding or entry into cells for Lassa Virus; Lassa virus pseudotype entry inhibition, cell reporter; control for the full effect not named in the record; Potency, µM (top dose mostly 37.9 µM), without a hit: at the highest dose activity change, negative = inhibition, hits mostly inhibitors; 1.2% of 300,000 active; AID 540256, 2011; active means well fitted inhibition curve with a large enough effect; inconclusive means small, poorly fitted or top-dose-only effect, or effect the other way; inactive means flat fitted curve, though single readings scatter; tested in HEK293 cells; also: % is scaled to controls: 0 for no effect and ±100 for the full control effect; nearly all actives have a fitted effect of over 50% in size; luciferase read-out
Cruzain noTriton – qHTS Assay for Promiscuous and Specific Inhibitors of Cruzain (without detergent). Potency, µM, inactives show max response, negative = inhibition, hits mostly inhibitors. AID 1476, 2009. purified cruzain, Z-FR-AMC fluorescence, no detergent. 2.3% of 200,000 active;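 also: plate controls were enzyme without inhibitor for no effect and buffer without enzyme for full effect; nearly all actives have a fitted effect of over 40% in size; top concentration of the series not given in the record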
Target sequence (P25779 123-467 limits assumed): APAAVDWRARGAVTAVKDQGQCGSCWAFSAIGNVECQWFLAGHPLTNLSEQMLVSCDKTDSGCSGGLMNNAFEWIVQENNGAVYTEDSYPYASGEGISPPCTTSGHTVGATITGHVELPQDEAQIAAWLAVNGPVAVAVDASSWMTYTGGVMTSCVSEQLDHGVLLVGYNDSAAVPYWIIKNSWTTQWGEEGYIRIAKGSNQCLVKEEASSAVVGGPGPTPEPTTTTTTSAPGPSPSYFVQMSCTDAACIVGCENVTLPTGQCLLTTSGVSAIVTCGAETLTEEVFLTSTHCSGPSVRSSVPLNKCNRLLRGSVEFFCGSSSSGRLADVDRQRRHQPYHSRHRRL
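Detergent-free condition (0.00005% Triton X-100) in acetate buffer pH 5.5 with DTT. 1.5 nM enzyme and compound were pre-mixed 15 min, then 2 uM Z-FR-AMC substrate added; reaction progress from fluorescence change between first and third reads (60 s).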
NS1 inh – qHTS Assay for Inhibitors of Influenza NS1 Protein Function. S. cerevisiae slowed by influenza A NS1, growth recovery by OD600. Potency, µM (titrated, usually from 46.1 µM), for inactives: at the top dose activity, positive = more growth. 0.4% of 270,000 active. AID 2326, 2010; active means well fitted rising curve with a large enough effect; inconclusive means small, poorly fitted or top-dose-only effect; inactive means no such curve, though single readings can be large or run the other way; also: nearly all actives have a fitted effect of over 50% in size
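In this qHTS, NS1 from influenza A is expressed in budding yeast, where it slows growth. Cells are switched from glucose to 2% galactose medium (pH 6.0, -URA), treated with compound, and growth recovery is read at OD600.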
Marburg entry inh – qHTS for inhibitors of binding or entry into cells for Marburg Virus; Marburg virus pseudotyped entry inhibition, cell reporter; control for the full effect not named in the record; about a third of the inactives were read at about 46 µM; Potency, µM (doses to about 37.8 µM), for the others: top-dose activity change, negative = inhibition, hits mostly inhibitors; 1.8% of 300,000 active; active = well fitted inhibition curve with a large enough effect; inconclusive = small, poorly fitted or top-dose-only effect, or effect the other way; inactive = flat fitted curve, though single readings scatter; tested in HEK293 cells; about a fifth of its hits are not listed in these tables; also: % is scaled to controls: 0 for no effect and ±100 for the full control effect; luciferase read-out
SARS PLP yeast – qHTS of Yeast-based Assay for SARS-CoV PLP. S. cerevisiae expressing SARS-CoV PLpro, growth rescue; control for the full effect not named in the record. Potency, µM (series often up to 32.9 µM), inactives show at the top dose activity, positive = growth rescue. 0.19% of 330,000 active. AID 485353, 2010; active means well fitted rising curve with a large enough effect; inconclusive means small, poorly fitted or top-dose-only effect; inactive means no such curve, though single readings can be large or run the other way; also: 0% is about no effect; nearly all actives have a fitted effect of over 55% in size; growth read by luminescence after 48 h
Cruzain Triton – qHTS Assay for Promiscuous and Specific Inhibitors of Cruzain (with detergent); 0.43% of 200,000 active; Potency, µM, inactives show max response, negative = inhibition, hits mostly inhibitors; purified cruzain, Z-FR-AMC fluorescence, 0.01% Triton; Cruzipain (Trypanosoma cruzi), P25779;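 also: plate controls were neutral wells for no effect and buffer without enzyme for full effect; nearly all actives have a fitted effect of over 40% in size; top concentration of the series not given in the record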
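Compounds were screened in titration against cruzain (1.5 nM) with 0.01% Triton X-100 to counter colloidal aggregation. Activity was the AMC fluorescence increase over 60 s after adding 2 uM Z-FR-AMC at pH 5.5.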
RE007 growth inh – qHTS Assay for Inhibitors of the HIV-1 protein Vpr; S. pombe RE007 Vpr strain, BacTiter-Glo ATP luminescence, 24 h; control for the full effect not named in the record; 0.21% of 360,000 active; Potency, µM (highest dose often 92.2 µM), without a hit: at the top dose activity change, negative = less growth; active = well fitted falling curve with a large enough effect; inconclusive = small, poorly fitted or top-dose-only effect; inactive = no such curve, though single readings can be large or run the other way;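 also: % is scaled to controls: 0 for no effect and ±100 for the full control effect; nearly all actives have a fitted effect of over 50% in size; the assay follows cell death caused by Vpr and the record does not say whether a fall means rescue or toxicity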
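Fission yeast RE007 carrying one integrated HIV-1 vpr copy, seeded at OD 0.01 in PMG+AL medium with 23 nL pinned compound. Grown 24 h at 30 degrees; viability read by BacTiter-Glo luminescence after 5 min.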
Starred values were filed as active, the others as inactive; u = inconclusive; x = not tested or not shown; & = joins results of further samples; [ ] = dose if it differs, or a comment. Unless noted, calls follow the shape of the dose curve; as a rule, active = well fitted curve in the direction sought with a large enough effect; inconclusive = small, poorly fitted or top-dose-only effect, or another doubt; inactive = no such curve, though single readings can be large; an effect the other way counts as inactive or inconclusive. Potency is read from the fitted curve at half-maximal effect. This is a random part of the collection. Share with any hit: about 4.5%.

Order of results – StopGo reporter	Lassa entry inh	Cruzain noTriton	NS1 inh	Marburg entry inh	SARS PLP yeast	Cruzain Triton	RE007 growth inh
1: CCC(=O)N1c2ccc(S(=O)(=O)CCC(=O)N3CCC4(CC3)OCCO4)cc2CC1C (configuration not stated)
 : -9%	2%	6%	-9%	-5%[46.1 µM]	-1%	5.8%	11%
2: O=C(CC1SC(N2CCCCC2)=NC1=O)Nc1cccc(C(=O)O)c1 (configuration not stated)
 : -2%	18%	1%	0%	-19%	3%	2.1%	16%
3: CCC(C)n1c(SCc2c(F)cccc2Cl)nc2ccsc2c1=O (configuration not stated)
 : 0%	x	1%	x	x	x	0.4%	x
4: COc1ccc(OC)c(CNc2ncnc3onc(-c4ccc(Cl)cc4)c23)c1
 : u	u	-5%	x	u	x	-2.4%	x
5: O=C(CSC1=NCCS1)Nc1cccc2ccccc12
 : -19%	-2%	u	u	-16%	3%	-3.0%	-1%
6: CCOC(=O)C(C#N)C(Cc1ccccc1)c1ccco1 (configuration not stated)
 : -14%	-2%	-8%	0%	1%	2%	-7.8%	-18%
7: O=C(CSc1nnc(-c2ccccn2)n1-c1ccccc1)Nc1ccc2c(c1)OCO2
 : -1%	0%	-2%	0%	-15%	x	-4.1%	11%
8: CCOc1cc(N2CCOCC2)c(OCC)cc1NC(=O)COC(=O)c1ccc([N+](=O)[O-])o1
 : 3%	-6%	x	x	u	-11%	x	-20%
9: CCOc1ccc2nc(Cl)c(C3CC(c4ccco4)=NN3S(C)(=O)=O)cc2c1 (configuration not stated)
 : -7%	u	x	3%	-10%[46.1 µM]	0%	x	-2%
10: CN(C)c1ccc(C(=O)N2CCCC2)cc1
 : 6%	1%	x	x	-2%	2%	x	1%
11: Cc1ccc(CNC(=O)c2nnn(CC(=O)Nc3cc(C)cc(C)c3)c2N)cc1
 : -4%	x	x	-11%	x	-3%	x	4%
12: CCCOC(=O)c1ccc(NS(=O)(=O)c2cccs2)cc1
 : 6%	-2%	-7%	-47%	0%	-7%	-6.9%	-1%
13: CN(CC(=O)Nc1cccc(F)c1)C(=O)c1ccc(COc2ccccc2)cc1
 : -10%	-20%	x	x	u	-3%	x	24%
14: O=C(CCN1C(=O)C2C3C=CC(C3)C2C1=O)N1CCN(c2ccccc2F)CC1 (configuration not stated)
 : 2%	7%	3%	-5%	2%	3%	1.0%	-6%
15: CCN1C(c2ccccc2)=C(c2ccccc2)S/C1=C/C=C1\SC(=S)N(C)C1=O
 : -13%	-16%	10µM*	4%	25%	-1%	-5.5%	-23%
16: Cc1sc(NC(=O)CSc2n[nH]c(N)n2)c(C#N)c1C
 : -10%	-4%	x	x	4%[46.1 µM]	x	x	-15%
17: CN(C)Cc1c(O)ccc2c(=O)c(-c3ccccc3)c(C(F)(F)F)oc12
 : 2%	x	x	-2%	x	-2%	x	11%
18: CCN(Cc1cc2cc(OC)ccc2[nH]c1=O)C(=O)Cc1ccc(OC)cc1
 : 0%	-20%	-3%	-25%	x	-1%	-3.2%	5%
19: CCOC(=O)NC(=O)/C(C#N)=N\Nc1cccc(OC)c1
 : -7%	9%	x	-3%	u	0%	x	12%
20: Cc1cccc(NC(=O)C2CC3CCC2C3)c1C (configuration not stated)
 : 2%	17%[46.1 µM]	x	x	12%[46.1 µM]	x	x	-4%
21: CCC(C(=O)Nc1ccc(C)cc1)c1ccccc1 (configuration not stated)
 : -7%	20%	x	x	-25%[46.1 µM]	-1%	x	-5%
22: O=C(Nc1ccc(Cl)cc1Cl)c1cc(S(=O)(=O)NCc2ccc3c(c2)OCO3)ccc1F
 : -5%	0%[46.1 µM]	0%	x	x	x	0.6%	x
23: Cc1sc2c(c1C)c(=O)n(-c1cccc(C(F)(F)F)c1)c(=O)n2Cc1ccc(F)cc1
 : -11%	10%[46.1 µM]	-3%	x	-14%[46.1 µM]	x	-1.6%	x
24: CCOc1ccc(-c2nc(-c3cccs3)c(CC(=O)O)s2)cc1OC
 : 57%[activator]	u	x	x	12%[46.1 µM]	0%	x	-2%
25: CC(=O)c1cn(CC(=O)Nc2ccc(C)c(C)c2)c2ccccc12
 : -21%	u	x	x	u	-2%	x	9%
26: COc1cc(OC)c(OC)cc1CNC(=O)c1ccc(S(=O)(=O)N2CCCCC2)cc1
 : u	-19%	x	x	u	0%	x	10%
27: CCOC(=O)c1nnn(-c2nonc2N)c1-c1ccc(C)cc1
 : -20%	-7%	6%	2%	u	1%	2.3%	0%
28: S=P(Nn1cnnc1)(c1ccccc1)c1ccccc1
 : 7%	x	x	4%	x	-1%	x	-5%
29: O=C(Nc1nc2ccc(F)cc2s1)c1nc(S(=O)(=O)Cc2ccccc2F)ncc1Cl
 : u	u	u	x	u	x	-5.3%	x
30: O=C(Nc1ccc(S(=O)(=O)N2CCCC2)cc1)c1cnccn1
 : -22%	14%[46.1 µM]	x	-1%	0%[46.1 µM]	-1%	x	5%
31: Clc1ncnc2scc(-c3ccccc3)c12
 : x	-3%	-10%	6%	-18%	-6%	-2.5%	-20%
32: O=C(COc1cccnc1[N+](=O)[O-])Nc1cccc(Br)c1
 : 32%[activator]	u	x	x	u	0%	x	-13%
33: CNC(=S)N/N=C(\C)c1ccc(-n2ccnc2)cc1
 : -2%	-13%	4%	2%	-3%	-7%	-4.2%	-9%[3.69 µM]
34: O=c1[nH]c(=S)n(-c2ccccc2)c(O)c1C=NCc1ccccn1
 : -14%	-3%[46.1 µM]	x	6%	-2%[46.1 µM]	1%	x	7%
35: [O-]/C(=C(\C(=S)Nc1cccc2ccccc12)[n+]1ccccc1)c1cccs1
 : 24%	-16%	x	13%	17%[46.1 µM]	-1%	x	-15%
36: O=C(Cn1c(=O)oc2cc(S(=O)(=O)N3CCCC3)ccc21)NCc1ccc(F)cc1
 : 0%&0%	-4%[46.1 µM]	11%&-25%	-2%	19%[46.1 µM]	-6%	-3.1%&2.7%	40%
37: Cc1cccc(Cn2ccc(NC(=O)c3cccnc3)n2)c1
 : 10%	x	x	5%	x	0%	x	-2%
38: Cc1nc(-c2ccccc2)sc1C1(C)CC(c2c(Cl)cccc2Cl)=NO1 (configuration not stated)
 : 9%	x	x	u	x	-3%	x	-15%
39: COc1ccccc1NC(=O)C1=C(C)Nc2nc(SCc3ccccc3)nn2C1c1cccc(O)c1 (configuration not stated)
 : -24%	u	-11%	x	-16%[46.1 µM]	x	-5.2%	x
40: COc1ccc(/C=C/c2nnc(NC(=O)C(C)(C)C)s2)cc1
 : 3%	7%	x	-12%	9%[46.1 µM]	-1%	x	16%
41: COc1ccc(C2SCC(=O)N2c2ccc(F)cc2)cc1 (configuration not stated)
 : 0%	x	x	2%	x	2%	x	1%
42: COc1ccc(CC(=O)NCc2csc(-c3cccs3)n2)cc1OC
 : u	u	x	-1%	-22%[46.1 µM]	1%	x	4%
43: Cc1[nH]c2ccccc2c1/C=C(\C#N)C(=O)NC1CC1
 : 6%	1%[46.1 µM]	x	-8%	u	1%	x	1%
44: CC(=O)Nc1ccc2c(c1)-c1ccc(F)cc1C2=O
 : -12%	3%	x	x	21%	x	x	8%
45: CCOc1cccc2cc(C(=O)N3CCN(C/C=C/c4ccccc4)CC3)c(=O)oc12
 : -18%	-26%	-13%	-8%	15%	-7%	-5.5%	-5%
46: O=C(COc1ccc(S(=O)(=O)N2CCOCC2)cc1)N1CCCCCC1
 : -13%	-11%	x	-3%	27%[46.1 µM]	1%	x	8%
47: COc1ccc(C2Nc3ccccc3-n3c(-c4ccccc4)c4c(=O)n(C)c(=O)n(C)c4c32)cc1 (configuration not stated)
 : -15%	u	-11%	x	u	x	3.2%	x
48: C=C(C(=O)O)C1CCC2(C)CCCC(C)(O)C2C1 (configuration not stated)
 : -1%	x	x	11%	x	0%	x	17%
49: COCCCNC(=O)c1ccc(OC)c(OC2CCN(C(C)C)CC2)c1
 : -19%	x	x	-6%	x	-1%	x	1%
50: CCN(C(=O)COC(=O)/C=C/c1ccccc1Cl)c1c(N)n(Cc2ccccc2)c(=O)[nH]c1=O
 : -11%	u	x	x	u	-3%	x	16%
51: COc1ccc(C2C=C(Nc3ccccc3)C(=O)N2c2ccccc2)cc1OC (configuration not stated)
 : -26%	13%	2%	25%	2%	13%	-10.0%	13%
52: Cc1ccc(O)c(-c2cc(C(=O)NCc3ccncc3)[nH]n2)c1
 : 1%	-10%	6%	-10%	-31%	-2%	0.4%	-2%
53: CCOc1ccc(S(=O)(=O)NCc2cccnc2)cc1NC(=O)c1ccccc1F
 : 57%[activator]	-5%	x	1%	u	-2%	x	-8%
54: COCCCNc1nc2ccccc2nc1NS(=O)(=O)c1ccc(C)c(C)c1
 : -4%	-4%	x	-36%	6%[46.1 µM]	-1%	x	6%

Exported as labelled records: 4 of the compounds above.
38	Cc1nc(-c2ccccc2)sc1C1(C)CC(c2c(Cl)cccc2Cl)=NO1 (configuration not stated)
  StopGo reporter: 9% | Lassa entry inh: x | Cruzain noTriton: x | NS1 inh: u | Marburg entry inh: x | SARS PLP yeast: -3% | Cruzain Triton: x | RE007 growth inh: -15%

39	COc1ccccc1NC(=O)C1=C(C)Nc2nc(SCc3ccccc3)nn2C1c1cccc(O)c1 (configuration not stated)
  StopGo reporter: -24% | Lassa entry inh: u | Cruzain noTriton: -11% | NS1 inh: x | Marburg entry inh: -16%[46.1 µM] | SARS PLP yeast: x | Cruzain Triton: -5.2% | RE007 growth inh: x

40	COc1ccc(/C=C/c2nnc(NC(=O)C(C)(C)C)s2)cc1
  StopGo reporter: 3% | Lassa entry inh: 7% | Cruzain noTriton: x | NS1 inh: -12% | Marburg entry inh: 9%[46.1 µM] | SARS PLP yeast: -1% | Cruzain Triton: x | RE007 growth inh: 16%

41	COc1ccc(C2SCC(=O)N2c2ccc(F)cc2)cc1 (configuration not stated)
  StopGo reporter: 0% | Lassa entry inh: x | Cruzain noTriton: x | NS1 inh: 2% | Marburg entry inh: x | SARS PLP yeast: 2% | Cruzain Triton: x | RE007 growth inh: 1%
